WNV protease inh: inhibitors of WNV NS2B-NS3 protease, primary screen, biochemical, fluorogenic substrate. actives 0.18% (n = 65,000). z-score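 (tested at a level between 10 and 100 µM)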. Genome polyprotein (West Nile virus), P06935. AID 577, 2007. fluorogenic substrate Ex360/Em465; stronger effect = lower value;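 active = z-score at -3 or under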;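 also: score is relative to mean and spread of the compound wells of a plate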
Target sequence (P06935 1371-1501 limits assumed): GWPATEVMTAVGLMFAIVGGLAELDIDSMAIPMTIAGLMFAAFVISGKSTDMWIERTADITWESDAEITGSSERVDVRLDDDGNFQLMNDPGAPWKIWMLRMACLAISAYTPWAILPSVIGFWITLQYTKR
Target sequence (P06935 1502-1679 limits assumed): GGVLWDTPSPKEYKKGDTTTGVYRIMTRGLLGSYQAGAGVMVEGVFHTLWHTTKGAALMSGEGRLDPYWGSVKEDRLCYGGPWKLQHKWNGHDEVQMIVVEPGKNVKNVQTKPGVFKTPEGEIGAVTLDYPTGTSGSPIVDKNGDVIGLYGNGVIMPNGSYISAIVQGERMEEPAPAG
Hsc70: Hsc70 inhibitors, probe displacement, primary screen, biochemical, fluorescence polarization (AID 568); displacement, % at 20 µM, or IC50 in µM where a hit was titrated; 83,000 tested, under 10 active; Heat shock cognate 71 kDa protein (Homo sapiens); Hsc70 fluorescence polarization, probe displacement; higher % means a stronger effect; strong numbers were not always called active;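 active = displacement above 50% without optical interference and an IC50 on retest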;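 also: ATPase domain with a fluorescein-tagged ATP probe; 0% = vehicle and 100% = excess ADP; read after one hour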
MT1-MMP promoter: inhibitors of MT1-MMP promoter transcription, cell-based, luciferase reporter, luminescence (AID 618) | MT1-MMP promoter luciferase reporter cells, luminescence | calls from a first round at 10 µM; hits with a dose series show EC50 in µM | actives 0.62% (n = 87,000);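 active = over half of the reporter light lost at 10 µM or EC50 under 50 µM; inactive = the rest and hits that failed the dose series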;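 also: actives suppress MT1-MMP promoter-driven transcription so potencies describe inhibitors; HT1080 fibrosarcoma cells; overnight exposure; toxic or luciferase-blocking compounds were not removed from the actives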
The depositor's hits bear a star; i = inactive; x = not tested or not shown. An excerpt. The share of hits here may be higher or lower than overall.

SMILES	MT1-MMP promoter	WNV protease inh	Hsc70
NC(N)=NC(=O)c1nc(Cl)c(N)nc1N	i	-0.26	-2.8%
Cc1ccc(C23CC4CC(CC(NC(=O)N5CCN(C)CC5)(C4)C2)C3)cc1	i	-0.22	2.6%
CC(C)CNc1nc(Oc2ccc(=O)n(-c3ccccc3)n2)nc(N2CCOCC2)n1	i	0.77	3.9%
COc1ccc(OCc2nnc(SCC(=O)NCc3ccco3)o2)cc1	i	0.29	2.9%
Cc1ccc(-c2nc(CS(=O)CC(=O)NCCC(C)C)c(C)o2)cc1 (stereo not given)	i	-0.87	-3.5%
CC(C)(C)OC(=O)N[C@@H](Cc1ccccc1)c1nnc(S(=O)(=O)Cc2cccc(F)c2)o1	i	-0.03	-1.2%
N#Cc1c(-c2ccccc2)nc(N2CCOCC2)[nH]c1=O	i	-1.31	2.6%
O=C(NCCC1=CCCCC1)c1ccc(Cl)c(S(=O)(=O)N2CCOCC2)c1	i	-0.03	6.1%
CC1C=Cc2ccccc2N1C(=O)c1ccccc1 (stereo not given)	i	1	-0.7%
COc1cc(/C=C(\C#N)c2[nH]nc(N)c2C#N)cc(OC)c1O	i	x	-1.3%
CCCC(=O)Nc1ccc(C(=O)NCC2CCCO2)cc1 (stereo not given)	i	x	1.1%
CN(C)c1ccc(C=Nc2ccccc2C(N)=O)cc1	i	-0.27	2.6%
O=C(OCC(=O)c1cccs1)C1=COCCO1	i	-0.07	-4.5%
CNc1ccc(Br)cc(C(=O)/C=C/c2cccc(OC)c2OC)c1=O	i	x	-0.8%
CCn1c(SCC(=O)N2CCN(c3cccc(Cl)c3)CC2)nc2ccccc2c1=O	i	x	1.5%
O=c1cc(O)nc(SCc2ccccc2Cl)[nH]1	i	-0.21	0.5%
COC(=O)C1=C(C)N(C)C(C)=C(C(=O)OC)C1c1ccncc1	i	1.12	-2.2%
Cc1ccc2nc(-c3cccc(S(=O)(=O)N(C)C)c3)cn2c1	i	0.28	-2.1%
CC(C)c1cc(C(=O)Nc2cccc(Cl)c2)no1	i	0.44	7.8%
CC(=O)c1ccc(S(=O)(=O)N(Cc2cc3cc4c(cc3[nH]c2=O)OCCO4)CC2CCCO2)cc1 (stereo not given)	i	1.57	1.2%
Cc1ccc(S(=O)(=O)N2CCCC(c3nc(-c4ccc(C)o4)no3)C2)cc1 (stereo not given)	i	x	-0.6%
S=C(N=Nc1ccccc1)NNc1ccccc1	i	1.6	1.0%
CCN(CC)CCC(=O)Nc1ccc2c(c1)N(C(=O)CN(CC)CC)c1ccccc1CC2	i	x	3.6%
Fc1ccccc1N1CCN(Cc2nc(-c3ccccc3)no2)CC1	i	-1.7	-2.3%
CCOC(=O)c1ccc(N2CSC3=C(C#N)C(c4cccs4)CC(=O)N3C2)cc1 (stereo not given)	i	-0.18	1.4%
COc1ccc(N2CCC(CNC(=O)Nc3ccc(OC)cc3OC)C2)cc1 (stereo not given)	i	1.14	-1.3%
COc1cccc(Nc2nc(=O)[nH]nc2C)c1	i	-0.52	-3.3%
N=c1c(-c2nc3ccccc3[nH]2)cc(C(=O)c2cccs2)nn1-c1ccccc1	i	x	-4.2%
CC(C)NS(=O)(=O)c1ccc(OCC(=O)NCC2CCCO2)c(Cl)c1 (stereo not given)	i	x	5.1%
Cc1ccc(OCCCC(=O)Nc2ccc(S(=O)(=O)Nc3cc(C)on3)cc2)cc1	i	-0.19	-1.3%
COc1ccc(-c2nnc(SCc3ccccc3F)o2)cc1OC	i	-0.59	0.4%
COC(=O)c1[nH]c2cccc(OC)c2c1NC(=O)CCN1CCN(c2ccccc2F)CC1	i	-0.18	-7.2%
COCCn1c(-c2cc(OC)c(OC)c(OC)c2)nc2oc3ccccc3c(=O)c2c1=O	i	0.99	4.1%
CC(=O)NCc1cn2c(C)csc2n1	i	-0.72	1.6%
CC(=O)Oc1ccc2c(C)cc(=O)[nH]c2c1	i	-0.51	-0.9%
COc1ccc(CNCC(=O)Nc2cc(C)nn2-c2nc(C)cc(C)n2)cc1OC	i	-0.26	5.8%
O=C(c1cc(-c2cccs2)on1)N1CCN(c2ccc(F)cc2)CC1	i	-0.89	-8.0%
COCCn1c(SCC(=O)Nc2nc3ccccc3s2)nnc1-c1ccoc1C	i	x	3.6%
Cc1nc(N2CCCC2C(=O)O)c2oc3ccccc3c2n1 (stereo not given)	i	-0.63	4.3%
CCN(CCNS(=O)(=O)c1ccc2[nH]c(=O)sc2c1)c1ccccc1	i	0.01	-3.7%
O=C(CSc1nc2ccccc2o1)NCCOc1ccccc1	i	-0.31	1.8%
CCN(/C=N/c1sc2c(c1C#N)CC(C)(C)NC2(C)C)CC	i	x	3.2%
Cc1ccccc1OCC(=O)NCCN1CCCC1	i	1.29	-0.9%
Cc1ccc(S(=O)(=O)CCc2nnc(N)s2)cc1	i	x	-5.1%
Cc1ccc(S(=O)(=O)c2c(N)n(/N=C/c3ccco3)c3nc4ccccc4nc23)cc1C	i	-0.71	-53.7%
Cc1c(C(=O)N2CCN(c3ccccc3)CC2)sc2ncnc(N3CCN(c4ccccc4)CC3)c12	i	0.46	-3.1%
COc1ccc(S(=O)(=O)N2CCC(C(=O)N3CCCCC3)CC2)cc1Cl	i	x	4.7%
CCC(C)NS(=O)(=O)c1ccc(OCC(=O)Nc2ccc3c(c2)OCO3)cc1 (stereo not given)	i	x	4.6%
COc1cc(OC)cc(C(=O)NC2CCN(CC(=O)Nc3cccc4ccccc34)CC2)c1	i	x	-1.6%
Cc1cccc(OCC(O)Cn2c(-n3nc(C)cc3C)nc3c2c(=O)[nH]c(=O)n3C)c1 (stereo not given)	i	-0.88	-2.2%

A second format for some results above.
Every second line gives: MT1-MMP promoter, WNV protease inh, Hsc70
> COc1ccc(CNCC(=O)Nc2cc(C)nn2-c2nc(C)cc(C)n2)cc1OC
    i, -0.26, 5.8%
> Cc1ccc(S(=O)(=O)c2c(N)n(/N=C/c3ccco3)c3nc4ccccc4nc23)cc1C
    i, -0.71, -53.7%
> COc1cccc(Nc2nc(=O)[nH]nc2C)c1
    i, -0.52, -3.3%

Next part:
SMILES	MT1-MMP promoter	WNV protease inh	Hsc70
Cc1ccc(N2CCN(S(=O)(=O)c3ccc(F)cc3)CC2)c(C)c1	i	-0.24	1.9%
O=C(Nc1cccnc1)c1c(O)c2cccc3c2n(c1=O)CC3	i	1.02	-63.5%
O=C(Nc1cccc2nsnc12)c1ccc2c(c1)OCO2	i	x	-1.8%
Cn1c[n+](C)cc1/C=N/O	i	0.36	-5.6%
COC(=O)c1ccc(C(=O)OC)c(NC(=O)CN2CCN(c3ccc(OC)cc3)CC2)c1	i	x	8.1%
CC(C)CC(=O)Nc1ccc(S(=O)(=O)NCc2ccco2)cc1	i	x	-0.2%
O=C(c1cc2c(=O)n3ccccc3nc2s1)N1CCOCC1	i	3.23	-4.4%
CCn1c(COc2ccc(Cl)cc2)nnc1SCc1ccc(C#N)cc1	i	0.81	-2.0%
CCOC(=O)C1=NN(c2ccccc2C)C2=NC(C)=C(C(=O)OC)C(c3cccs3)N12 (stereo not given)	i	x	-0.7%
CCn1c(=O)cc(NC2=NCC(C)CN2c2cccc(Cl)c2)n(C)c1=O (stereo not given)	i	-0.9	0.1%
CCC(C)NC(=O)c1cc(Cl)ccc1OC (stereo not given)	i	x	-0.4%
Cc1oc(/N=C/c2ccccc2O)c(C#N)c1C	i	-0.66	-3.9%
CCn1c(=O)cc(SCC(=O)N2CCC(C)CC2)c2ccccc21	i	0.09	-0.5%
Cc1ccccc1C(=O)NCCc1nnc(SCC(=O)Nc2nc(-c3ccccc3)cs2)n1C	i	x	2.0%
CCC(C)(C)NC(=O)C(c1ccc(F)cc1)N(Cc1ccco1)C(=O)CCC(=O)Nc1ccccn1 (stereo not given)	i	-0.04	-3.6%
Cn1c(=O)c2c(SCC(=O)N3CCN(c4ccccc4)CC3)nc(C3CC3)nc2n(C)c1=O	i	-0.61	1.6%
CC(C)Cn1nc(NC(=O)C2CCCO2)c2cc3ccccc3nc21 (stereo not given)	i	0.13	0.9%
Cc1ccccc1N1C(=O)c2ccccc2C1Nc1cccnc1 (stereo not given)	i	0.79	4.4%
COc1ccc(-c2nn(CC(=O)N3CCCCC3)c(=O)c3ccccc23)cc1	i	x	0.6%
CC(=O)Nc1ccc(-c2nn[nH]n2)cc1Cl	i	-0.27	-2.6%
CC(=O)Nc1cc2c(cc1NC(=O)Cn1nc(-c3ccccc3F)ccc1=O)OCCO2	i	-0.71	3.2%
CC(C)OC(=O)CC12CN(C)CC(CC(=O)OC(C)C)(CN(C)C1)C2=O	i	x	-2.1%
Cc1ccccc1N(CC(=O)N1CCN(c2ccccc2)CC1)S(C)(=O)=O	i	x	4.0%
CC1CC2(CC(C)(C(=O)CSc3n[nH]c(-c4ccccc4Cl)n3)OC2=O)C(=O)O1 (stereo not given)	i	2.54	2.8%
Cc1cc(C)n2nc(SCC#N)nc2n1	i	0.67	-0.1%

Reprinted from the entries so far for reference:
SMILES	MT1-MMP promoter	WNV protease inh	Hsc70
CC1CC2(CC(C)(C(=O)CSc3n[nH]c(-c4ccccc4Cl)n3)OC2=O)C(=O)O1 (stereo not given)	i	2.54	2.8%
Cc1cc(C)n2nc(SCC#N)nc2n1	i	0.67	-0.1%

A few values from the entries so far:
Entry for S=C(N=Nc1ccccc1)NNc1ccccc1 under WNV protease inh: 1.6
Entry for Cc1ccccc1N1C(=O)c2ccccc2C1Nc1cccnc1 (stereo not given) under WNV protease inh: 0.79
Entry for COCCn1c(-c2cc(OC)c(OC)c(OC)c2)nc2oc3ccccc3c(=O)c2c1=O under WNV protease inh: 0.99

(cont.)
SMILES	MT1-MMP promoter	WNV protease inh	Hsc70
CCOC(=O)N1CCN(C(=O)CN(Cc2ccccc2)S(=O)(=O)c2ccc(OC)c(C)c2)CC1	i	-0.39	0.7%
O=C(C1CCCO1)N1CCc2ccccc21 (stereo not given)	i	0.73	-5.1%
CC1CCC(C(=O)NC(C(=O)NCCN2CCC(C)CC2)C(C)C)CC1 (stereo not given)	i	1.45	-3.8%
O=C(NCc1ccco1)C(Cc1ccccc1)NS(=O)(=O)c1cccc2nsnc12 (stereo not given)	i	-0.12	-6.8%
CCOC(=O)COc1ccc(S(=O)(=O)NCCC2=CCCCC2)cc1	i	0.01	4.0%
COCCNC(=O)CS(=O)Cc1nc(-c2ccc(Cl)cc2)oc1C (stereo not given)	i	-0.55	6.9%
O=S(=O)(c1ccccc1)n1ccc2ccccc21	i	0.3	2.9%
Cc1nnn(C23CC4CC(CC(C4)C2)C3)n1	i	-1.09	-4.6%
O=c1[nH]cnc2sc(-c3ccccc3)cc12	i	x	0.9%
Cn1ncc(C#N)c1NC(=O)c1cc(-c2ccccc2Cl)on1	i	x	-2.2%
O=C(O)c1cnn2c1NC(c1cccs1)CC2C(F)(F)F (stereo not given)	i	0.87	-0.7%
CC(Oc1ccccc1Br)C(=O)N1CCc2ccccc21 (stereo not given)	i	-0.72	3.4%
CN(c1ccc(C(=O)Nc2ccc3c(c2)OCCO3)cc1)S(C)(=O)=O	i	x	-3.8%
Cc1ccc(N(C(C)C(=O)N2CCC(C)CC2)S(C)(=O)=O)cc1C (stereo not given)	i	1.65	1.0%
O=C(O)C1CCCCC1C(=O)NCCCc1ccccc1 (stereo not given)	i	0.3	-1.3%
O=C(C1CCN(S(=O)(=O)c2cccc3cccnc23)CC1)N1CCc2ccccc21	i	-0.41	-5.9%
Cc1csc(NC(=O)c2cccc(C)c2C)n1	i	x	2.6%
O=C(CCNS(=O)(=O)c1ccc2c(c1)CCC(=O)N2)NCc1ccc2c(c1)OCO2	i	-0.76	-1.2%
COc1ccc(-n2nnc3c(=O)n(CC(=O)N4CCCc5ccccc54)cnc32)cc1	i	-0.5	-1.0%
Cc1cccc(Nc2ncnc3nc[nH]c23)c1	i	-1.08	3.5%
COc1cccc(NC(=O)COC(=O)c2c3c(nc4ccccc24)CCC(C)C3)c1 (stereo not given)	i	x	2.6%
CC(=O)N(c1c(C)n(C)n(-c2ccccc2)c1=O)C1(C(=O)NC2CCCCC2)CCCCC1	i	x	1.7%
Cc1ccccc1S(=O)(=O)Cc1ccc(C(=O)NCCCN2CCN(C)CC2)o1	i	0.29	2.9%
COC(=O)C(C)N(C(=O)c1ccc(C(=O)c2ccccc2)cc1)c1c(C)cccc1C (stereo not given)	i	x	1.7%
COCCn1c(SCC(=O)Nc2cccc(OC)c2)nnc1-c1ccc(Cl)cc1	i	-0.11	4.8%
Cc1ccccc1NC(=O)c1ccc(S(=O)(=O)N(C)C)cc1	i	-0.26	1.4%
Cc1c(C(=O)N2CCN(c3ccc(F)cc3)CC2)sc2nc(-c3ccccc3)cn12	i	0.53	0.1%
CCOC(=O)CCSc1nc(C)c2cc(OC)ccc2n1	i	x	2.3%
c1ccc2c(c1)nc1n2CCN1CCNC1CCCCC1	i	1.25	9.0%
Cc1cc(OCC(=O)NCCO)cc(C)c1Cl	i	0.82	-2.1%
CCOc1ccccc1NC(=O)CC1NCCNC1=O (stereo not given)	i	-1.23	3.3%
O=C(Cn1cnc2ccccc2c1=O)N1CCN(Cc2ccccc2)CC1	i	-1.46	1.1%

Assay outcomes as filed in PubChem.
